# RN4220 kill: growth inhibition of S. aureus RN4220, primary screen, OD600 | 16 h | inhibition, % (no concentration beside the values) | 0.33% of 330,000 active | AID 1259311, 2017;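 active = z-score of -3 or lower and OD600 up to 0.18 on both plates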;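 note: plate controls were untreated cells for no effect and reference antibiotic for full effect; stock transfer was 100 nL into about 80 µL; one replicate is shown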
# Mtb hypoxia inh: PubChem AID 1159583. M. tuberculosis hypoxia-regulated fluorescent reporter, fluorescence. fluorescence inhibition, % (no concentration beside the values). 0.1% of 300,000 active;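 active = 35 to 45% if threefold the growth effect, above 45% if 1.5-fold the growth effect; inactive = the rest, general growth blockers included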;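 note: wells of about 50 µL received 100 nL stock; 0% = vehicle wells and 100% = reference inhibitor wells; whole bacteria with a GFP reporter of the hypoxia response; strong numbers were not always called active; many hits fall short of the cut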
# BJeLR viability: MLPCN primary cell-based screen for lethality selective to Ras in HRASV12 cells | BJeLR (HRASV12) viability, CellTiter-Glo ATP luminescence, 48 h; reference of the scale not given here | inhibition, % (concentration not given with the values) | 0.17% of 300,000 active;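 active = replicate mean above 50%; inconclusive = above 50% but judged a plate artefact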;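 note: 50 nL library stock added to about 25 µL; numbers are from one replicate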
# Sa ugtP lethal: growth inhibition of ugtP-null S. aureus, primary screen, RN4220 ugtP deletion, OD600; AID 1259309, 2017; 0.54% of 330,000 active; growth inhibition, % (concentration not given with the values); 16 h; some inactives read as strong as hits;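 active = z-score under -3 and OD600 up to 0.15 on both plates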;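 note: plate controls were untreated wells for no effect and antibiotic for full effect; wells of about 80 µL received 100 nL stock; the first replicate is given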
# PrP 5UTR inh: inhibition of PrP 5' UTR reporter expression; cell-based PrP 5' UTR mRNA reporter, plate reader; inhibition, % (test concentration not listed); 0.35% of 340,000 active; AID 488862, 2010;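 active = every replicate at 50% or more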;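 note: 0 = median of the neutral control wells; tested in H4 reporter cells; numbers are from one replicate; inactives centre near -14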
# Bead autofluor: compound fluorescence in toxin protease inhibitor counterscreen | compound autofluorescence counterscreen, microsphere flow cytometry; stronger effect = higher value | 3.1% of 360,000 active | fluorescence intensity (no concentration beside the values);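 active = at least 3 SD above the mean of all compounds, about 16000 in these data; inconclusive = too few beads counted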;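 note: 100 nL of 1 mM stock went into each well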
# Mtb hypoxia inh growth: recorded beside Mtb hypoxia inh, whose call it bears; growth inhibition, %; measured here: M. tuberculosis growth (absorbance);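 0% = vehicle and 100% = reference antibiotic; read after six days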
# The depositor's hits bear a star; ? = inconclusive; / = no result given; & = joins results of further samples. Compounds as they come; 4.1% or so of the library scored in one or more.
no.	Molecule	RN4220 kill	Mtb hypoxia inh	Mtb hypoxia inh growth	BJeLR viability
1	CCOC(=O)CNC(=O)CSc1nc2cccnc2n1CC	3.5	5	3	-10
2	Fc1cccc(NC(=S)NCCN2CCOCC2)c1	7.2	11	10	-2
3	COC(=O)CCC(=O)OC1(C)C(=O)C2=CN(CCc3ccccn3)C(c3ccc(OC)cc3)=CC2=C(Br)C1=O (configuration not stated)	/	/	/	12
4	O=C(CNC(=O)c1ccco1)OCC(=O)c1ccc(Br)cc1	1.6	4	-2	0
5	O=C(CSC1=Nc2ccccc2C2=NC(c3ccccc3)C(=O)N12)NCC1CCCO1 (configuration not stated)	5.5	16	15	-2
6	C=CCN1C=C2C(=O)C(C)(OC(=O)c3cnc4ccccc4n3)C(=O)C=C2C=C1/C=C/COC (configuration not stated)	/	/	/	1
7	O=C(CC1NCCNC1=O)OCc1ccccc1 (configuration not stated)	11	/	/	-1
8	COc1ccc(NC(=O)CN2CCC(n3c(C)nc4cc(F)ccc43)CC2)c(OC)c1	-0.1	14	5	-1
9	CC(=O)NC1C(=O)N=C(SCC(=O)Nc2c(C)cccc2C)NC1=O (configuration not stated)	6.7	0	-5	4
10	CC(=O)c1ccc(S(=O)(=O)NCc2ccc(C(=O)N(C)CC(=O)Nc3cccc(F)c3)cc2)cc1	-2.7	5	10	-8

no.	Sa ugtP lethal	PrP 5UTR inh	Bead autofluor
1	-7	-25	4456
2	5	-19	2027
3	/	-21	2870
4	0	-20	3616
5	5	-20	2379
6	/	-17	3454
7	3	-26	5065
8	3	-6	3018
9	3	-3	4241
10	6	-6	5502

# Next section
no.	Molecule	RN4220 kill	Mtb hypoxia inh	Mtb hypoxia inh growth	BJeLR viability
11	C=CCOC(=O)C1=C(C)OC(N)=C(C#N)C12C(=O)N(CN1CCOCC1)c1ccccc12 (configuration not stated)	6.1	/	/	2
12	COc1cc(C(=O)NCCc2cn3ccccc3n2)cc(OC)c1OC	6.1	3	-1	-3
13	Cn1ncc([N+](=O)[O-])c1C(=O)Nc1ccn(Cc2ccccc2F)n1	0.0	9	11	-6
14	CCn1c(SCC(=O)c2ccc(Cl)cc2)nnc1-c1ccoc1C	6.5	/	/	3
15	Cc1[nH]c(C)c(S(=O)(=O)N2c3ccccc3CC2C)c1C(=O)N1CCCCC1 (configuration not stated)	2.2	5	3	4
16	CNC(=S)NNC(=O)Cc1ccc(OC)cc1	2.2	9	5	-12
17	Cc1cc(C)c2c(=O)[nH]c(SCC(=O)N(C)C)nc2n1	0.1	11	12	-2
18	CCn1c(=O)c(=O)[nH]c2cc(C(=O)NC3CC3)ccc21	4.4	16	5	14
19	CCCCNC(=O)NCC(=O)Nc1ccc(F)c(F)c1	5.4	11	8	2
20	CNC(=O)CS(=O)(=O)CC(=O)Nc1cc(OCCOC)c(Cl)cc1Cl	0.6	0	23	5

no.	Sa ugtP lethal	PrP 5UTR inh	Bead autofluor
11	-5	-21	4504
12	8	-10	4449
13	8	-4	24402*
14	-5	-13	4964
15	-2	-13	4834
16	9	-1	/
17	8	-10	12552
18	13	-31	7739
19	2	-11	2979
20	1	-33	4613

# Five entries from above, arranged by heavy-atom count, lowest first:
no.	Molecule	RN4220 kill	Mtb hypoxia inh	Mtb hypoxia inh growth	BJeLR viability
16	CNC(=S)NNC(=O)Cc1ccc(OC)cc1	2.2	9	5	-12
17	Cc1cc(C)c2c(=O)[nH]c(SCC(=O)N(C)C)nc2n1	0.1	11	12	-2
14	CCn1c(SCC(=O)c2ccc(Cl)cc2)nnc1-c1ccoc1C	6.5	/	/	3
13	Cn1ncc([N+](=O)[O-])c1C(=O)Nc1ccn(Cc2ccccc2F)n1	0.0	9	11	-6
11	C=CCOC(=O)C1=C(C)OC(N)=C(C#N)C12C(=O)N(CN1CCOCC1)c1ccccc12 (configuration not stated)	6.1	/	/	2

no.	Sa ugtP lethal	PrP 5UTR inh	Bead autofluor
16	9	-1	/
17	8	-10	12552
14	-5	-13	4964
13	8	-4	24402*
11	-5	-21	4504

# Continuation:
no.	Molecule	RN4220 kill	Mtb hypoxia inh	Mtb hypoxia inh growth	BJeLR viability
21	O=C(COC(=O)/C=C/c1ccc(C(F)(F)F)cc1)NCC1CCCO1 (configuration not stated)	2.0	6	1	-3
22	C#CCOCCOCCOCCNc1nc(N2CCN(C(=O)C(CCCCN)n3cc(C(N)CC(C)C)nn3)CC2)nc(N2CCN(C(=O)C(C(C)CC)n3cc(C(N)Cc4ccc(O)cc4)nn3)CC2)n1 (configuration not stated)	-5.4	2	25	/
23	CC1CCN(C(=O)CSc2nnc(CNc3ccc(F)cc3)n2Cc2ccco2)CC1	13	5	-5	6
24	Cc1ccccc1CN1CCN(C(=O)c2ccc(F)cc2)CC1	4.8	8	12	-6
25	CCn1nnc(NC(=O)c2ccccc2Br)n1	2.5	12	0	7
26	O=C(O)C1=CC(c2ccc(F)cc2)CC(OCCCCO)O1 (configuration not stated)	6.8&2.5	-1&16	1&17	/
27	O=C(Cn1nc(CNc2ccc(Cl)cc2)[n+]2c1CCCCC2)c1ccc(Cl)cc1	40	13	25	16
28	N#CC1(c2ccccc2)CCC(NCCc2ccccc2)CC1 (configuration not stated)	-0.4	-1	4	7
29	O=C(CCS(=O)(=O)c1cccs1)Nc1ccc(C(=O)NCc2ccc(F)cc2)cc1	-0.3	-72	-18	5
30	CC(C)(C)c1ccc(S(=O)(=O)Nc2ccc3c(c2)COC3=O)cc1	28	4	-1	-5

no.	Sa ugtP lethal	PrP 5UTR inh	Bead autofluor
21	0	0	6326
22	-5	/	/
23	-1	-16	2846
24	13	-7	3714
25	6	-30	7868
26	-1&-2	/	/
27	45	0	14213
28	1	-7	3750
29	4	0	3376
30	22	-18	3623

# (more compounds)
no.	Molecule	RN4220 kill	Mtb hypoxia inh	Mtb hypoxia inh growth	BJeLR viability
31	CC(=O)OCCC(C)C	0.1	/	/	/
32	COc1ccc(C(=O)NC(C)c2ccc(-n3ccnc3)cc2)cc1S(=O)(=O)N1CCOCC1 (configuration not stated)	4.2	-10	1	/
33	COc1ccc(N2C(=O)NC(=O)C2=O)cc1	0.5	-1	-10	-2
34	O=C(c1ccc(Cl)c(S(=O)(=O)N2CCCCCC2)c1)N1CCCC1	2.1	11	0	-4
35	O=c1c2cccnc2[nH]c(=S)n1CCC1=CCCCC1	0.2	7	3	-3
36	CC(=O)Nc1sc2c(c1C(c1ccccn1)N1CCN(C)CC1)CCCC2 (configuration not stated)	3.4	9	8	12
37	Cc1nc(-c2ccc(C(=O)Nc3cc(S(N)(=O)=O)ccc3C)cc2)cs1	11	0	2	-10
38	C#CCOCCOCCOCCNc1nc(N2CCN(C(=O)Cn3cc(CCCN=C(N)N)nn3)CC2)nc(N2CCN(C(=O)[C@H]([C@@H](C)CC)n3cc(CCC(=O)O)nn3)CC2)n1	/	/	/	-6
39	COc1cc(Nc2nc3ccccc3nc2NS(=O)(=O)c2ccc([N+](=O)[O-])cc2)cc(OC)c1OC	9.7	-12	-10	20
40	Cc1ccc(S(=O)(=O)N2CCC[C@H]2C(=O)Nc2ccccc2C)cc1	4.2	6	13	/

no.	Sa ugtP lethal	PrP 5UTR inh	Bead autofluor
31	1	-2	5784
32	10	-2	?
33	-1	-32	4022
34	4	-16	3552
35	4	-24	3044
36	7	-6	4344
37	-6	-35	4271
38	/	-6	4146
39	-1	20	4690
40	6	8	3349

# (next part)
no.	Molecule	RN4220 kill	Mtb hypoxia inh	Mtb hypoxia inh growth	BJeLR viability
41	C=CCN1C(=O)c2ccc(C(=O)NCCc3ccc(OC)c(OC)c3)cc2C1=O	2.9	-9	-9	6
42	CC1(C)CC(=O)C=C(c2cccc(O)c2)C1=O	7.6	12	9	/
43	CC1=C(C(N)=O)C(c2ccccn2)n2nc(-c3ccccc3Cl)nc2N1 (configuration not stated)	3.9	/	/	-10
44	Cc1ccc(NC(=O)CCc2nnc3ccc(N4CCC5(CC4)OCCO5)nn23)nc1	-2.3	-1	4	7
45	Cc1cccc(C(C)C)c1-n1nnnc1-c1ccccc1	7.8	7	4	-4
46	Cc1csc(NC(=O)c2oc3ccccc3c2C)n1	6.5	2	1	19
47	CCCN(CCC)C(=O)C1CCN(c2ccc(S(=O)(=O)N3CCOCC3)cc2[N+](=O)[O-])CC1	-2.9	5	4	-4
48	Cc1noc2ncnc(Oc3ccccc3)c12	-1.8	/	/	-4
49	C=CCn1c(-c2cc(OC)c(OC)c(OC)c2)n[nH]c1=S	5.9	8	7	-1
50	O=C(CCSCc1ccccc1)Nc1ccc2c(c1)OCCO2	-2.1	-3	3	4

no.	Sa ugtP lethal	PrP 5UTR inh	Bead autofluor
41	2	-12	/
42	4	-29	3625
43	8	-12	6188
44	-2	-10	5013
45	24	-18	6783
46	-11	-83	?
47	2	-12	5238
48	4	-5	2422
49	2	-83	11183
50	2	-45	5079

# (more compounds)
no.	Molecule	RN4220 kill	Mtb hypoxia inh	Mtb hypoxia inh growth	BJeLR viability
51	N#CCCN1CCN(S(=O)(=O)c2ccc(S(=O)(=O)NC3CCCCC3)cc2)CC1	0.2	/	/	-5
52	Cn1c(=O)c2c(ncn2CC(=O)OCC(=O)Nc2ccc(Cl)cc2Cl)n(C)c1=O	5.5	1	0	-8
53	Cc1ccc(NNC(=O)C(O)(c2cccc(C(F)(F)F)c2)c2cccc(C(F)(F)F)c2)cc1	11	11	10	3
54	CC(C)OCCCn1c(-c2ccco2)nc2nc3ccccc3nc21	2.3	6	14	-1
55	Cn1nc(C(=O)NCc2ccccc2)cc1C(=O)NCc1ccccc1	0.8	-4	6	3
56	COc1ccc(Cl)cc1NC(=O)C(C)N1CCN(C/C=C/c2ccccc2)CC1 (configuration not stated)	-8.9	/	/	-6
57	CC(=O)c1c(N2CCN(c3cccc(Cl)c3)CC2)nc(=S)n(-c2ccccc2)c1C	71	1	2	-2
58	COc1ccc(N2C(=O)CC(Nc3cccc(C(C)=O)c3)C2=O)cc1OC (configuration not stated)	-0.8	/	/	-5
59	Cc1ccc(S(=O)(=O)NCCC(=O)Nc2ccc(Cl)cc2C(=O)c2ccccc2)cc1	5.8	-2	-4	3
60	Cc1ccc2[nH]c(O)c(N=Nc3ccccc3C)c2c1	3.5	3	0	-10

no.	Sa ugtP lethal	PrP 5UTR inh	Bead autofluor
51	14	-17	6068
52	4	-17	2642
53	-3	-26	2456
54	-12	1	11246
55	-1	-8	3685
56	-38	-1	2427
57	83*	-2	8414
58	6	-14	2133
59	-6	-24	2174
60	-6	-20	6144

# (continued)
no.	Molecule	RN4220 kill	Mtb hypoxia inh	Mtb hypoxia inh growth	BJeLR viability
61	COc1cccc(OCc2cc(C(=O)N3CCC(C(O)C(C)C)CC3)no2)c1 (configuration not stated)	2.2	-8	-12	-6
62	NC(=O)C1=C[C@@H](C2CCCCC2)C[C@@H](OCCCCO)O1	/	/	/	-9
63	COc1ccc(C(=O)NC2CC(C)(C)Cc3c2cnn3-c2ccccc2C)c(OC)c1OC (configuration not stated)	1.2	12	6	5
64	CCOC(=O)c1[nH]c2ccc(Br)cc2c1NC(=O)CNC	-1.6	/	/	1
65	O=c1ccc(-c2ccc(S(=O)(=O)NCc3cccc(Br)c3)s2)n[nH]1	8.3	7	-2	6
66	O=C(Cc1ccc(NC(=O)C2CCCN(C(=O)C3CC3)C2)cc1)Nc1cccc(C(=O)N2CCCC2)c1 (configuration not stated)	5.6	6	5	/
67	CN(C)c1oc(-c2ccc(Cl)cc2)nc1S(=O)(=O)c1ccccc1	6.6	-5	2	-4
68	C=C(C)c1ccc(C(C)(C)NC(=O)N(Cc2ccccc2)Cc2ccco2)cc1	3.8	8	7	10
69	C=CCn1c(SCCN2C(=O)c3ccccc3C2=O)nc2scc(-c3ccc(F)cc3)c2c1=O	1.7	11	9	/
70	O=C(NCc1ccncc1)C(=O)NCC(c1ccco1)N1CCN(c2ccccc2)CC1 (configuration not stated)	1.2	6	5	4
71	CC(=O)Nc1ccc(NC(C)=C(C#N)C#N)cc1	3.9	11	7	-4
72	Nn1cnnc1N/N=C/c1cc([N+](=O)[O-])c(Cl)cc1Cl	/	/	/	7
73	CN1C(=O)C(CCC(N)=O)NC1=S (configuration not stated)	2.7	4	3	-4

no.	Sa ugtP lethal	PrP 5UTR inh	Bead autofluor
61	1	-7	4708
62	/	-8	4057
63	5	-21	7018
64	1	-16	3175
65	2	-11	4410
66	9	-14	4223
67	-6	-19	9957
68	14	-10	22989*
69	7	-17	4139
70	4	-17	5392
71	16	-11	2561
72	/	-29	2433
73	5	-5	3681
